miR-21 reporter = raises the signal of a miR-21 reporter; Potency, µM (doses to about 38.3 µM), inactives show at the highest dose reporter change, positive = more light; AID 2288; 340,000 tested, under 10 active; HeLa miR-21 FLuc reporter, luciferase, 48 h; active = well fitted rising curve with a large enough effect; inconclusive = small, poorly fitted or top-dose-only effect; inactive = no such curve, though single readings can be large or run the other way;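 also: % of control where 0% means no effect; miR-21 action dims this reporter so a rising signal means less miR-21 action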
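Compounds were titrated across several concentrations (up to approximately 40 uM) and incubated 48 hours with HeLa miR-21-FLuc reporter cells (miR-21 target sequence downstream of FLuc, endogenous miR-21). Readout was firefly luciferase luminescence after lytic detection reagent.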
* marks the source's active call; other numbers are inactive results; ? = inconclusive. Only part of the results is shown; count on the stated rates, not on these rows.

SMILES	miR-21 reporter
Cc1cccc(NC(=O)CSc2nc(-c3ccco3)cc(C(F)(F)F)n2)c1C	6%
CCOc1ccc(CCNC(=O)c2ccc3c(c2)N(Cc2cccc(Cl)c2)C(=O)c2ccccc2S3(=O)=O)cc1OCC	3%
CCOc1ccc(NC(=O)CN2C(C(=O)OC)=C(c3ccccc3)c3cc(Cl)ccc3S2(=O)=O)cc1	9%
CCOc1ccccc1C(=O)Nc1ccc2c(c1)N(C)C(=O)c1ccccc1S2	?
COc1cccc(-c2nc(SCC(=O)Nc3ccc4c(c3)OCCO4)c(-c3ccc(C)cc3)[nH]2)c1	?
COc1ccccc1N1CCN(CCCNC(=O)c2nnc(Cc3c(F)cccc3Cl)o2)CC1	0%
Cc1ccc2c(c1)c1c(c(=O)n(-c3cccc(Cl)c3)c(=O)n1CC(N)=O)n2C	0%
Cc1ccc(CNC(=O)CS(=O)(=O)c2cccc3nsnc23)cc1	-1%
Cc1ccc2c(=O)cc(C(=O)Nc3ccc(S(=O)(=O)Nc4ncccn4)cc3)oc2c1C	2%
CCCc1ccc(S(=O)(=O)N2CCC(Oc3ccc(-n4cnnn4)cc3)CC2)cc1	-7%
N#CC1=C(N)N(c2cccc(Cl)c2)C2=C(C(=O)CCC2)C1c1cc(CN2CCOCC2)cs1 (centres undefined)	0%
CCC(Sc1nc2nccnc2c(=O)n1Cc1ccc(F)cc1)C(=O)NC1CCCCC1 (centres undefined)	0%
CCOc1ccc(S(=O)(=O)N(CC(=O)NCCSc2ccc(C)cc2)c2ccccc2)cc1	-1%
CCOc1ccc(NC(=O)c2cn3c4c(ccc(Cl)c4c2=O)OC(C)C3)cc1 (centres undefined)	1%
CCC(=O)N1c2nc(-c3ccco3)nn2C2(CCCCC2)[C@@H]2CCCC[C@@H]21	-6%
O=C(Nc1cccc(O)c1)c1cc(-c2ccccc2F)no1	0%
Cc1cccc(C(=O)NCC(=O)OCc2cc(=O)n3nc(C4CCCCC4)sc3n2)c1	-8%
COc1ccc(C(=O)NCC(c2cccnc2)N2CCN(c3ccc(F)cc3)CC2)cc1 (centres undefined)	14%
CCN(CC)C(=O)Cn1c(=O)cc(C)c2c(C)nn(-c3cccc(Cl)c3C)c21	19%
COc1ccc(-c2[nH]nc3nc(-c4cc(Br)ccc4OC)cc(C(=O)O)c23)cc1	-3%

Part of the list above in a different format.
| Molecule | miR-21 reporter |
| --- | --- |
| CCC(Sc1nc2nccnc2c(=O)n1Cc1ccc(F)cc1)C(=O)NC1CCCCC1 (centres undefined) | 0% |
| CCOc1ccc(S(=O)(=O)N(CC(=O)NCCSc2ccc(C)cc2)c2ccccc2)cc1 | -1% |
| CCOc1ccc(NC(=O)c2cn3c4c(ccc(Cl)c4c2=O)OC(C)C3)cc1 (centres undefined) | 1% |
| CCC(=O)N1c2nc(-c3ccco3)nn2C2(CCCCC2)[C@@H]2CCCC[C@@H]21 | -6% |
| O=C(Nc1cccc(O)c1)c1cc(-c2ccccc2F)no1 | 0% |
| Cc1cccc(C(=O)NCC(=O)OCc2cc(=O)n3nc(C4CCCCC4)sc3n2)c1 | -8% |
| COc1ccc(C(=O)NCC(c2cccnc2)N2CCN(c3ccc(F)cc3)CC2)cc1 (centres undefined) | 14% |

Further entries.
SMILES	miR-21 reporter
CCOC(=O)c1c(S(=O)(=O)N2CCC(C(=O)NCc3ccc(F)cc3)CC2)c(C)n(C)c1C	-2%
O=C(Nc1cc(C(F)(F)F)ccc1Cl)c1cc(-c2cccs2)nc2ccccc12	-3%
COc1cc2ccccc2cc1C(=O)Nc1ccc2oc(-c3cccc(C)c3)nc2c1	-6%
COc1ccc(F)cc1S(=O)(=O)NCCc1sc2nc(-c3ccc(F)cc3)nn2c1C	1%
COc1cccc(NC(=O)Cn2c(=O)n(Cc3ccc(F)cc3)c(=O)c3sc4ccccc4c32)c1	2%
CCOc1ccc(NC(=O)CN(c2ccccc2OCC)S(=O)(=O)c2ccccc2)cc1	11%
CCS(=O)(=O)c1ncc(N(Cc2ccco2)Cc2sccc2C)c(C(=O)Nc2ccc(C)cc2C)n1	-5%
COc1cccc(CNC(=O)c2ccc3nc(N4CCCCC4)sc3c2)c1OC	0%
Cc1ccc(Cl)cc1N1CCN(S(=O)(=O)c2ccc3[nH]c4c(c3c2)CCCCC4)CC1	15%
Cc1ccc(Nc2ccc3cc(S(=O)(=O)N4CCC(C)CC4)ccc3n2)c(Cl)c1	3%
CC(=O)N1CCC(N(C(=O)Nc2ccc(C)c(F)c2)C(C)C)CC1	-2%
O=C(Nc1ccccc1C(=O)OCc1cc(=O)n2ccsc2n1)c1cccc(F)c1	-3%
COc1cc(OC)cc(C(=O)Nc2ccc(S(=O)(=O)Nc3onc(C)c3C)cc2)c1	-6%
COc1ccc(-n2c(=O)c3sc4ccccc4c3n(C)c2=O)cc1	-13%
CCOC(=O)C1CCCN(C(=O)C2CCN(S(=O)(=O)c3c(C)noc3/C=C/c3ccc(C)cc3)CC2)C1 (centres undefined)	10%
CSc1nc2sc3c(c2c(=O)n1-c1ccccc1)CCC(C(C)(C)C)C3 (centres undefined)	-3%
Cc1cc(C)nc(-n2nc(C)c3c2N(Cc2ccccc2)C(=O)CC3c2ccc(Cl)cc2)n1 (centres undefined)	4%
CC(C)c1ccc(Nc2c(-c3ccsc3)nc3ccc(Cl)cn23)cc1	0%
Cc1cc(C)cc(NC(=O)c2ccc3c(c2)nnn3C2CCCC2)c1	16%
COc1ccc(CNC(=O)c2cc3c(=O)oc4ccc(C)cc4c3s2)c(OC)c1	2%

4 of the compounds above, with bars between the fields:
Compound | miR-21 reporter
Cc1ccc(Cl)cc1N1CCN(S(=O)(=O)c2ccc3[nH]c4c(c3c2)CCCCC4)CC1 | 15%
Cc1ccc(Nc2ccc3cc(S(=O)(=O)N4CCC(C)CC4)ccc3n2)c(Cl)c1 | 3%
CC(=O)N1CCC(N(C(=O)Nc2ccc(C)c(F)c2)C(C)C)CC1 | -2%
COc1ccc(CNC(=O)c2cc3c(=O)oc4ccc(C)cc4c3s2)c(OC)c1 | 2%

Next records
SMILES	miR-21 reporter
COc1ccc(N(C(=O)c2ccc(C(C)(C)C)cc2)S(=O)(=O)c2ccc(Cl)cc2)cc1	?
Cc1ccc(C(=O)c2cn(Cc3ccccc3C)c3nc(C)ccc3c2=O)cc1	-1%
Cc1ccc(NC(=O)c2cnn3c(C(F)F)cc(-c4ccccc4)nc23)c(C)c1	-7%
Cc1ccc2c(=O)cc(CSc3nnc(-c4ccccc4)n3C)[nH]c2c1C	-4%
CCOc1ccccc1NC(=O)C1CCCN1S(=O)(=O)c1ccc2c(c1)C(C)(C)C(=O)N2C (centres undefined)	-1%
CCOc1ccc(C(=O)NCC(c2ccc3c(c2)OCO3)N2CCOCC2)cc1 (centres undefined)	-7%
COc1cc(NC(=O)CN(C)S(=O)(=O)c2ccc3c(c2)CCCC(=O)N3)cc(OC)c1OC	3%
CC(C)C(NS(=O)(=O)c1ccc2c(c1)oc(=O)n2C)C(=O)NCc1ccccc1 (centres undefined)	-1%
CCOC(=O)c1scc(-c2ccccc2)c1S(=O)(=O)Nc1ccccc1F	2%
CCOC(=O)CC(NC(=O)c1cc2cc(OC)ccc2oc1=O)c1ccc(OC)cc1 (centres undefined)	1%
Cc1ccc(C)c(CN2CCC(CNC(=O)C(CC(C)C)N3Cc4ccccc4C3=O)CC2)c1 (centres undefined)	21%
Cc1cccc(C(=O)Nc2c(-c3ccccc3)nc3cc(C)ccn23)c1	-4%
COc1ccc(CNC(=O)Cn2c(=O)n3nc(-c4ccc(OC)cc4)nc3c3ccccc32)cc1	2%
COC(=O)c1nnn(-c2ccc(Cl)cc2)c1C(=O)OC	-4%
O=c1c2cccnc2n(Cc2ccc(Cl)cc2)c(=O)n1Cc1ccc(F)cc1	-4%
CCN(c1ccccc1)c1nnc(NC(=O)Nc2ccccc2F)s1	2%
COc1ccc(C2=C(C(C)=O)Sc3nnc(-c4ccc(Cl)cc4)n3N2C(C)=O)cc1OC	0%
COC(=O)c1ccc(Cn2c(SCc3cccc(C)c3)nc3ccncc32)cc1	-6%
COc1ccccc1N1CCN(C(=O)Cc2c(C(=O)O)c(C)cn2C)CC1	-4%
Cc1ccccc1NC(=O)c1cc2sccc2n1Cc1ccc(F)cc1	-13%
CCc1ccccc1NC(=O)CSc1ncc2c(n1)-c1cc(Cl)ccc1N(Cc1ccccc1)S2(=O)=O	-1%
COc1ccc2[nH]c3c(c2c1)CCN(C(=O)CCC1CCCC1)C3c1ccc(F)cc1 (centres undefined)	26%
CCN1CCc2nc3sc(C(=O)Nc4cccc(Cl)c4C)c(N)c3cc2C1	?
CCOc1ccc(OCC)c(NS(=O)(=O)c2cc(-c3cc(C)no3)ccc2C)c1	-4%
COC(=O)c1ccc(NC(=O)c2cc3cc4ccc(OC)c(Cl)c4nc3s2)cc1	-26%
CC(C)CS(=O)(=O)c1oc(-c2ccc(F)cc2)nc1S(=O)(=O)c1ccccc1	?
CCOC(=O)c1cccc(NC(=O)Cn2nc3c(cc2=O)CCCC3)c1	3%
COc1cccc(C(=O)N2CCC(C(=O)Nc3cccc(Cl)c3)CC2)c1	0%
CCS(=O)(=O)N1CCc2cc(C(=O)N3CCN(c4cccc(C(F)(F)F)c4)CC3)ccc21	21%
CC(=O)c1ccccc1NS(=O)(=O)c1cc2c(cc1C)NC(=O)CO2	3%
CN(C)c1ccc(C(CNC(=O)c2ccccc2F)N2CCc3ccccc32)cc1 (centres undefined)	-40%
COc1cccc(N2CCN(C(=O)c3ccc(CS(=O)c4cccc(Cl)c4)o3)CC2)c1 (centres undefined)	?
Cc1ccc(OCC(=O)Nc2ccc3nc(SCC(=O)N4CCCC4)sc3c2)cc1	-3%
CCOC(=O)c1c(-c2ccccc2)csc1NC(=O)c1nc(S(=O)(=O)CC)ncc1Cl	-10%
COC(=O)C1CCN(C(c2ccccc2)c2sc3nc(-c4ccco4)nn3c2O)CC1 (centres undefined)	-2%
CC(C)(C)c1ccc(C(=O)N2CCC(c3noc(-c4ccc(S(=O)(=O)N5CCCC5)cc4)n3)CC2)cc1	21%
COc1ccc(Cl)cc1NC(=O)CSc1nc(=O)[nH]c2c1CCC2	4%
Cc1ccc(NC(=O)c2c(C)oc3ccc(O)c(CN4CCCCC4)c23)cc1	10%
COc1cc2c(-c3ccccc3Cl)nc3c(c(C)nn3-c3ccccc3)c2cc1OC	-2%
CC(CCc1ccccc1)NC(=O)CSc1n[nH]c(-c2ccccc2)n1 (centres undefined)	19%
Cc1ccnc(NS(=O)(=O)c2ccc(NC(=O)C(C)(C)Oc3ccc(Cl)cc3)cc2)n1	-6%
COc1ccc(-c2cc(C(=O)Nc3c(C(=O)c4ccc(Cl)cc4)oc4ccccc34)no2)cc1	-4%
CCOc1ccc(N(CC)S(=O)(=O)N2CCCC(C(=O)Nc3cc(Cl)ccc3C)C2)cc1 (centres undefined)	27%
COc1ccccc1CNc1ccc(-c2nc(-c3ccncc3)no2)cc1[N+](=O)[O-]	3%
COc1ccc(N(CC(=O)Nc2cccc(Cl)c2C)S(=O)(=O)c2c(C)nn(C)c2C)cc1	0%
CC(=O)c1ccc(N2CCN(c3ncnc4c3cnn4C)CC2)cc1	-2%
Cc1ccc(CNC(=O)CSC2=Nc3ccccc3N=C(c3ccc(F)cc3)C2)cc1	-5%
CCOC(=O)c1cnc2c(C)c(Cl)ccc2c1NCCc1ccccc1	-6%
COc1ccccc1CNC(=O)C1CCCN(C(=O)c2cnn(-c3ccc(F)cc3)c2-n2cccc2)C1 (centres undefined)	8%
N#C/C(=C\c1ccc(-c2cc(Cl)ccc2Cl)o1)C(=O)Nc1ccccc1C(=O)O	-3%
CCOCCc1nn2c(=O)cc(COC(=O)CNC(=O)c3ccc(C(C)(C)C)cc3)nc2s1	1%
COc1ccc(N2CC(NC(=O)COc3ccccc3C)CC2=O)cc1OC (centres undefined)	-3%
Cc1cc2c(n1-c1ccc(C(=O)NCC(C)c3ccccc3)cc1)CCCC2 (centres undefined)	-10%
COc1cc(NC(=O)Cn2c(SCc3ccc(F)cc3)nc3cccnc32)cc(OC)c1	-20%
COc1nnc(-c2ccc(N3CCCCC3)c(NC(=O)c3ccccc3)c2)c2ccccc12	-2%
COC(=O)c1ccc(NC(=O)CC2C(=O)N(c3ccc(C)cc3)C(=O)N2Cc2ccc(OC)cc2)cc1 (centres undefined)	0%
CCOC(=O)N1CCN(Cc2nc3cc(NC(=O)c4ccccc4[N+](=O)[O-])ccc3n2C(C)C)CC1	-1%
COc1ccccc1NC(=O)Cn1c(=O)n(-c2cccc(Cl)c2)c(=O)c2c1c1cc(C)ccc1n2C	6%
O=[N+]([O-])c1cc(-c2nc(-c3ccccc3)no2)ccc1N1CCCC1	4%
COc1ccc(C2CC(=O)c3cc(-c4nc(-c5ccc(C)cc5)cs4)c(=O)[nH]c3C2)cc1 (centres undefined)	-5%

Next results:
SMILES	miR-21 reporter
CCCCCCOc1ccc(C2C(=O)N(C3CCCCC3)CC(=O)N2CCCC)cc1 (centres undefined)	-3%
Cc1cc(C)cc(N2C(=O)CS(=O)(=O)C23C(=O)N(C)c2ccccc23)c1 (centres undefined)	-3%
COc1cc(C)ccc1OCCSc1nc2ccc(NC(=O)c3cccs3)cc2s1	27%
CCC(C)NC(=O)CSc1nnc(-c2ccc(C)cc2)c(-c2ccc(C)cc2)n1 (centres undefined)	10%
COCCc1nn2c(=O)cc(COC(=O)C(c3ccccc3)c3ccccc3)nc2s1	?
COC(=O)c1ccc(NC(=O)CCc2c(C)nc3c(c(C)nn3C(C)(C)C)c2C)cc1	-2%
Cc1ccc(NC(=O)CCCn2c(=O)c3cccn3c3cccnc32)cc1C	-10%
CCOc1ccc(NS(=O)(=O)c2ccc3[nH]c4c(c3c2)CCCCC4)cc1	10%
